Ecoli growth: blocks Escherichia coli growth; 330,000 compounds, 0.21% hits; OD600 absorbance (concentration not given with the values); AID 1053175; OD600, 23 h; stronger effect = lower value;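 active means OD600 absorbance below the run mean of sample wells minus 3.6 SD, in any replicate, cut at about 0.56 in these data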;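 further: stock transfer was 300 nL into about 60 µL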
Beta cell apopt: blocks beta cell apoptosis; INS-1E cytokine-induced death, ATP luminescence, 48 h; percent of positive-control rescue, neutral wells zero; protection from apoptosis, % (test concentration not listed); AID 435005; 300,000 compounds, 0.8% hits;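 active means all replicates at 75% or more, or half of them and the mean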;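 further: 0% = cytokine-treated negative control wells and 100% = positive control rescue; higher means more ATP so stronger rescue from cytokine killing; wells of about 40 µL received 100 nL stock; the first replicate is given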
Bfl-1 A1 inh: inhibitors of the anti-apoptotic protein A1, read as caspase activation. MEF A1-2A-BIM cells, Caspase-Glo 3/7 luminescence, 3 h; percent of clofoctol response, vehicle zero. caspase activation, % (test concentration not listed). 330,000 compounds, 0.066% hits;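 active means over half of replicate activation scores above 10%, or exactly half above 10 with the replicate mean above 10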;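 further: wells of about 30 µL received 50 nL stock; many hits fall short of the cut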
Ecoli rRNA inh: inhibitors of bacterial rRNA selective over humanized ribosomes; E. coli WT GFP vs humanized-ribosome RFP mutants, fluorescence, 24 h; stronger effect = lower value; DMSO median 0, no signal -100; GFP signal change (wild-type ribosome), % (concentration not given with the values); 350,000 compounds, 1.6% hits; AID 720706;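 active means significant combined selectivity score with lowered wild-type GFP, culture density cut under 30%, mutant RFP and density less affected; inactive means any of these conditions unmet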; further: one replicate is shown; some compounds called inactive have numbers as strong as hits
UCH37 DUB inh: inhibitors of human deubiquitinating enzyme UCH37; Q9Y5K5; purified proteasome/UCH37, Ub-AMC cleavage fluorescence; inhibition, % (no concentration beside the values); 330,000 compounds, 0.33% hits; AID 588478;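 active means mean of two replicates above 20%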;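 further: 0% = compound-free wells with enzyme and 100% = wells lacking proteasome; stock transfer was 100 nL into about 20 µL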
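Material: Human UCH37 enzyme supplied as purified proteasome complex | Schedule: 30 min preincubation with enzyme, 25 min cleavage at room temperature | Detection: AMC fluorescence 355/460 nm | Measure: % inhibition of Ub-AMC cleavage fluorescence | Controls: Wells without proteasome as full block, compound-free enzyme plus substrate as uninhibited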
AF4-AF9 inh: MLL-AF4/AF9 protein interaction inhibition; P42568; AlphaScreen, biotin-AF4 peptide binding to FLAG-AF9; 350,000 compounds, 0.47% hits; inhibition, % at 10 µM;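 active means every replicate reaching a set inhibition limit, whatever the replicate mean, cut at about 25% in these data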;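 further: 0% = plate neutral control median and 100% = total signal loss; the record names both 10 and 1 µM as test concentration; the first replicate is given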
Target sequence (P42568 whole entry, looked up): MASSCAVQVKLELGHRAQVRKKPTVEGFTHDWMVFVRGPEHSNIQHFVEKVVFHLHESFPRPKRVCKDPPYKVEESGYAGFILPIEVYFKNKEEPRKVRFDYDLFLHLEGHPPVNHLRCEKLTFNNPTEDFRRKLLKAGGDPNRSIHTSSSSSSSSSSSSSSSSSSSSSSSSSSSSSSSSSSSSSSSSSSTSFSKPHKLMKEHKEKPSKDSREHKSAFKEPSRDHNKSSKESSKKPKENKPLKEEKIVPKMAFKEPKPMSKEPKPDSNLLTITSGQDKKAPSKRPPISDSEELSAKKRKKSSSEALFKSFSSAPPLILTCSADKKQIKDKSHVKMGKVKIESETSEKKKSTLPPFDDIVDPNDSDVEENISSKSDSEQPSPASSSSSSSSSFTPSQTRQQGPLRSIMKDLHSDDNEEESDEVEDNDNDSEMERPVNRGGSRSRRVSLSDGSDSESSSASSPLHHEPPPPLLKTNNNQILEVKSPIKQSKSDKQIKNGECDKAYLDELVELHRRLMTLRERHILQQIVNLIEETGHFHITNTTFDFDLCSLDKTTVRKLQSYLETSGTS
FGF22 binding: shifts melting point of recombinant human FGF22; recombinant FGF22 thermal shift, SYPRO orange fluorescence; percent of sucrose octasulfate shift, DMSO zero; 340,000 compounds, 1.5% hits; AID 651658; calls only at 9.99 µM; Q9HCT0;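 active means melting point raised past a set limit in the mean and every replicate; three in four hits are not shown here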
Target sequence (Q9HCT0 whole entry, looked up): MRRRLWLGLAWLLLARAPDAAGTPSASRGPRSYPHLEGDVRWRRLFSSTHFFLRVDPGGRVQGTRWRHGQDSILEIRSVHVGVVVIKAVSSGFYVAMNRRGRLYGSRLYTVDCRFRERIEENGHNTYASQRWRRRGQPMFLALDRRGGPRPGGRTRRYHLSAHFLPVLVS
T cruzi inh: blocks replication of Trypanosoma cruzi. T. cruzi beta-gal in NIH3T3, luminescence, 90 h. inhibition, % (concentration not given with the values). 300,000 compounds, 1.4% hits. AID 1885;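 active means mean inhibition across valid replicates above about 55%, limit read from the data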;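 further: signal also drops with host cell toxicity which is not excluded here; 0% = plate median of DMSO wells and 100% = zero luminescence signal; higher percent means less beta-gal luminescence so fewer parasites; stock transfer was 50 nL into about 50 µL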
Ecoli rRNA inh OD600: second read-out of Ecoli rRNA inh, no call of its own (marks repeat the call); OD600 change, %; measured here: OD600 growth;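 optical density of the mix in the first replicate; 0 = DMSO median and -100 = no signal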
Ecoli rRNA inh RFP: recorded beside Ecoli rRNA inh, whose call it bears; RFP signal change, %; measured here: RFP humanized mutant strains;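 first replicate; 0 = DMSO median and -100 = no signal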
An asterisk follows results filed as active; i = inactive; / = no result given. Some of the compounds tested; count on the stated rates, not on these rows.

Molecule,T cruzi inh,Ecoli growth,Bfl-1 A1 inh,FGF22 binding,Ecoli rRNA inh OD600,UCH37 DUB inh,Ecoli rRNA inh,Beta cell apopt,Ecoli rRNA inh RFP,AF4-AF9 inh
CN(C)[C@@H]1CCC[C@@H]1OC(=O)C(c1ccccc1)c1ccccc1,-2,0.72,-0.6,i,5,4.4,11,-6,-5.1,0.2
CCCCC1CC1C(=O)Nc1ncc2c(n1)CC(C)(C)CC2=O (centres undefined),6,0.69,-0.3,i,-4,2.6,-2,3,-6.1,-1.0
Cc1ccccc1OCC(O)Cn1c(SC(C)C)nc2c1c(=O)[nH]c(=O)n2C (centres undefined),1,0.64,-0.1,/,/,0.8,/,3,/,/
CCn1cc(CNCc2c(C(=O)N3CCCCC3)nc3c(C)cccn23)cn1,7,0.67,-0.1,i,12,-4.1,13,3,-2.2,-1.1
CCn1cc(C(=O)NCC(=O)OC)c2cc(OC)c(OC)cc2c1=O,-17,0.67,1.1,/,/,0.8,/,5,/,/
Cc1cccc(CCNS(=O)(=O)c2ccc3c(c2)NC(=O)CO3)c1,1,0.7,/,i,2,0.9,1,/,-1.0,0.1
Cc1nc2c(cc1N)nc(C)n2Cc1ccccc1,-7,0.61,0.1,i,-8,-170,-4,8,-0.5,2.8
COc1ccc(NC(=O)CSc2ccc(-c3ccco3)nn2)cc1OC,3,0.71,0.0,i,-10,-1.9,-8,0,0.6,-0.6
NS(=O)(=O)c1cccc(NC(=S)NCc2ccccc2)c1,-11,0.71,-0.1,i,-4,6.9,3,2,-4.2,-1.8
COc1ccc2c(CC(=O)N3CCN(S(=O)(=O)c4ccc(F)cc4)CC3)coc2c1,/,0.69,-0.4,i,1,3.3,-7,-3,2.0,-5.3
Cc1ccc(CNC(=O)C2CCN(S(=O)(=O)c3ccc4nc5c(c(C(=O)O)c4c3)CC(C)CC5)CC2)cc1 (centres undefined),-9,0.72,0.8,i,17,3.8,0,1,3.9,4.1
Cc1cccc(N(C(=O)c2snc(C(N)=O)c2N)C(C(=O)NCc2ccccc2)c2ccncc2)c1 (centres undefined),9,0.68,-1.9,i,8,-36,1,4,-2.5,-0.4
CCOc1ccc(CCNC(=O)CN(C)S(=O)(=O)c2cccc3nsnc23)cc1OCC,9,0.72,-0.3,/,/,4.6,/,1,/,/
O=C(CN1C(=O)N/C(=C\c2ccccc2OCc2ccc(C(=O)O)cc2)C1=O)Nc1ccc(F)cc1,-6,0.7,1.0,i,-8,-3.3,-17,0,-0.3,-3.8
CCn1cc(CNC(=O)c2cc([N+](=O)[O-])c(C)c([N+](=O)[O-])c2)cn1,7,0.64,-0.2,/,/,4.8,/,2,/,/
CC(=O)OCCCCCCCCCCC[N+]1(C)CCCCC1,11,0.67,0.6,i,4,3.9,3,3,6.7,-1.3
O=C(Nc1ccc(SC(F)F)cc1)c1ccc2nccnc2c1,15,0.65,-2.0,i,18,5.6,-11,39,3.8,7.6
O=C(Nc1cc(S(=O)(=O)N2CCOCC2)ccc1O)c1ccc2c(c1)S(=O)(=O)c1ccccc1C2=O,-5,0.67,0.1,i,10,4.1,-3,-6,1.8,1.1
O=C(CCc1nc2ccccc2[nH]1)Nc1ccc2c(c1)OCCO2,-1,0.71,-0.4,i,-8,2.5,-4,1,0.4,-5.9
Fc1ccc(-c2ccnn2-c2ccccc2)cc1,-6,0.66,2.4,i,2,0.7,7,-1,-4.0,-1.1
C=CCNC(=O)CN1CCC(n2nnc3cc(C(F)(F)F)ccc32)CC1,6,0.61,0.2,i,-6,-1.4,-4,-5,-2.7,-1.3
C#CCOCCOCCOCCNc1nc(N2CCN(C(=O)Cn3cc(CCCN=C(N)N)nn3)CC2)nc(N2CCN(C(=O)[C@H](CCCCN)n3cc(CCC(=O)O)nn3)CC2)n1,/,/,0.5,i,18,-1.0,3,1,7.5,-1.5
CN(C)C(=O)N1CCN(C(=O)c2ccco2)CC1,1,0.78,-0.3,i,4,0.5,13,-5,5.6,0.3
O=C(Nc1nc2ccccc2s1)c1cccc(N2C(=O)CCC2=O)c1,-16,0.72,-3.5,i,-1,-25,-5,2,-1.9,-11
Cn1c(O)c(N=NC(=O)C2COc3ccccc3O2)c2ccccc21 (centres undefined),-4,0.69,-1.1,/,2,4.8,2,2,-8.4,-92
Cc1ccc(NC(=O)C2c3ccccc3Oc3ccccc32)c(C)c1,9,0.69,0.7,i,14,6.2,2,4,0.4,-0.2
Cc1ccc(-n2[nH]c(C)c(C=Nc3cc(C)ccn3)c2=O)cc1,7,0.76,-6.4,/,/,7.1,/,9,/,/
N/C(=N\OC(=O)COc1ccccc1Cl)c1ccccn1,/,0.69,-6.9,/,/,-1.1,/,-1,/,/
COc1cc(C(=O)OCCn2c(=O)c3c(ncn3CCN(C)C)n(C)c2=O)cc(OC)c1OC,4,0.66,0.2,/,4,0.3,3,-2,-2.2,-4.6
CCCNC(=O)C(Cc1ccccc1)NC(=O)c1ccc(C(C)(C)C)cc1 (centres undefined),/,0.66,-0.9,i,2,2.6,6,-6,-4.5,/
OCc1c(OCc2cccc(F)c2)ccc2ccccc12,-2,0.7,-0.2,i,-8,3.2,-15,-8,2.5,-0.7
COc1ccc(C2OC(=O)CC2C(=O)NCc2ccc(F)cc2)cc1OC (centres undefined),-6,0.69,-0.2,i,8,2.8,11,-2,-0.2,0.3
CCOc1ccc(CN(C(=O)/C=C/c2ccco2)C2CCS(=O)(=O)C2)cc1 (centres undefined),-9,0.66,0.4,i,10,1.9,0,-5,-0.3,-3.0
O=C(c1ccco1)N1CCCC(c2nc3c(nnn3Cc3ccc(F)cc3)c(=O)[nH]2)C1 (centres undefined),-3,0.7,-2.0,i,-5,2.3,0,2,0.8,-1.5
COc1cccc(NC(=O)c2ccc(NC(C)=O)cc2)c1,-17,0.67,-3.5,/,-1,26*,2,-3,-3.6,/
CC(CCc1ccccc1)NC(=O)CNC(=O)c1ccccc1Br (centres undefined),3,0.72,-0.2,i,-20,-0.1,-13,-6,4.2,-2.4
O=C(O)c1cccc(S(=O)(=O)N2CCN(S(=O)(=O)c3ccc4ccccc4c3)CC2)c1,/,0.7,/,i,0,4.4,-1,/,-1.7,-7.9
Cc1cccc(OCC(O)Cn2c(=N)n(Cc3ccccc3)c3ccccc32)c1 (centres undefined),19,0.63,0.8,i,-48,2.6,-28,1,11,-3.7
CCC1CCCCN1S(=O)(=O)c1ccc2c(c1)CCN2C(=O)C1CCC1 (centres undefined),14,0.72,-0.4,/,/,0.7,/,14,/,/
NC(=O)c1ccccc1NS(=O)(=O)Cc1ccc(Cl)cc1,-20,0.69,0.8,i,6,-77,2,6,2.0,-8.4

Complete entries, looked up by structure. Order of screens: T cruzi inh, Ecoli growth, Bfl-1 A1 inh, FGF22 binding, Ecoli rRNA inh OD600, UCH37 DUB inh, Ecoli rRNA inh, Beta cell apopt, Ecoli rRNA inh RFP, AF4-AF9 inh
COc1cc(C(=O)OCCn2c(=O)c3c(ncn3CCN(C)C)n(C)c2=O)cc(OC)c1OC across the screens: 4, 0.66, 0.2, /, 4, 0.3, 3, -2, -2.2, -4.6
NC(=O)c1ccccc1NS(=O)(=O)Cc1ccc(Cl)cc1 across the screens: -20, 0.69, 0.8, i, 6, -77, 2, 6, 2.0, -8.4
COc1cccc(NC(=O)c2ccc(NC(C)=O)cc2)c1 across the screens: -17, 0.67, -3.5, /, -1, 26*, 2, -3, -3.6, /
CCCNC(=O)C(Cc1ccccc1)NC(=O)c1ccc(C(C)(C)C)cc1 (centres undefined) across the screens: /, 0.66, -0.9, i, 2, 2.6, 6, -6, -4.5, /
N/C(=N\OC(=O)COc1ccccc1Cl)c1ccccn1 across the screens: /, 0.69, -6.9, /, /, -1.1, /, -1, /, /

(further entries)
Molecule,T cruzi inh,Ecoli growth,Bfl-1 A1 inh,FGF22 binding,Ecoli rRNA inh OD600,UCH37 DUB inh,Ecoli rRNA inh,Beta cell apopt,Ecoli rRNA inh RFP,AF4-AF9 inh
CCc1c(C)nc2ncnn2c1Nc1ccc(C(C)=O)cc1,-4,0.7,0.5,/,/,11,/,-6,/,/
CCOC1CCc2c(C)nc(N)nc2S1 (centres undefined),-12,0.69,2.7,i,14,2.7,11,-5,0.6,0.1
Cc1ccc(Nc2ncnc3c2nnn3Cc2ccccc2)cc1,15,0.66,0.4,i,10,-11,8,1,-1.0,3.1
O=C(CCNC(=O)c1ccccc1Cl)Nc1cc(S(=O)(=O)N2CCOCC2)ccc1N1CCOCC1,0,0.69,0.2,i,11,3.6,-3,0,-7.6,-13
CC(=O)NN1C(=O)c2ccccc2NC1c1ccccc1O (centres undefined),-14,0.67,0.8,i,15,-418,18,/,4.0,0.6
CCCC(=O)C1CCN(Cc2ccccc2)CC1,16,0.65,0.9,/,/,1.5,/,-3,/,/
CC(C)C(CCN1C(=O)CCC1=O)C1CCOC(C)(C)C1 (centres undefined),-9,0.69,0.1,/,/,2.3,/,/,/,-3.4
CCn1c(=O)n(CC)c2cc(S(=O)(=O)N3CCCCC3)c(C)cc21,-9,0.72,-0.2,/,/,3.7,/,4,/,/
COc1ccccc1Nc1nn2c(=O)c3ccc(C(=O)N4CCC(C)CC4)cc3nc2s1,46,/,-1.2,i,4,/,1,8,0.0,3.6
Cc1cc(C(=O)NC2CC2)c2ccccc2n1,3,0.7,0.9,i,0,2.4,7,-5,-2.1,2.2
CN(C(=O)COC(=O)c1ccccc1SCC(=O)N1CCCC1)c1ccccc1,-3,0.71,-0.5,i,4,1.5,1,-8,0.3,0.5
CC1(C)CC(NC(=O)c2ccc(Cl)c(S(=O)(=O)N(Cc3ccccc3)c3ccccc3)c2)CC(C)(C)N1,39,0.63,0.1,i,-80,8.9,-56,/,-15,-3.7
CC(C)C(=O)Nc1cc(S(=O)(=O)Nc2ccc(Cl)cc2)ccc1Cl,2,0.7,0.0,i,0,2.8,1,-2,-4.9,-5.2
Cc1cccc(N2CCN(C(=O)CCNS(=O)(=O)c3ccc4c(c3)oc(=O)n4C)CC2C)c1 (centres undefined),-5,0.71,-0.9,i,-7,1.9,-1,8,1.2,0.0
Cc1ccc(N(C(=O)CNC(=O)c2ccco2)C(C(=O)NC2CCCC2)c2ccncc2)cc1 (centres undefined),-17,0.66,0.5,i,2,1.7,2,-8,-1.1,0.3
NC(=O)c1nsc(C(=O)N(Cc2cccnc2)C(C(=O)NC2CCCCC2)c2ccc(F)cc2)c1N (centres undefined),2,0.71,0.2,i,12,-62,6,0,1.6,6.1

Screening data from PubChem BioAssay.
